Screening data: PubChem BioAssay, PCMD
Calb biofilm kill = mixture kills Candida albicans biofilm cells; C. albicans biofilm persisters + clotrimazole, fluorescence viability; primary screen in compound mixtures of four per well; inhibition, % at 7.6 µM; 120,000 tested, 0.02% active; AID 1242;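 active = inhibition above 30.3% in the primary screen of four-compound pools, then above 30% when the compound was retested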;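 also: compounds exposed to preformed 24 h biofilms for 48 h; the number belongs to the whole pool; some results filed as inactive read as strong as hits; inactives centre near 12; 0% = biofilm with clotrimazole alone and 100% = kill control; retested singly at about 60 µM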
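System: C. albicans CAF4-2 wild-type biofilms; Medium: RPMI/MOPS medium, pH 7.0; Reagent: Clotrimazole, 50 µg/mL; Times: biofilm formation 24 h, compound exposure 48 h, 37 °C; Detection: 2-h Alamar Blue fluorescence, 535/590 nm excitation/emission; Evaluation: percent inhibition of biofilm viability.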
* = called active by the depositor.

Compound | Calb biofilm kill
Clc1ccc(C2[C@H]3CN(Cc4cccnc4)[C@H](c4ccccc4)C34CC2(c2cccnc2)C4)cn1 (some centres undefined) | 17.8
C=CCNC(=O)c1ccc(OC)cc1 | 23.7
CC(C)Oc1ccc(N2CC(C(=O)Nc3ccccn3)CC2=O)cc1 (centres undefined) | 18.9
Cc1nc(C)n(CC(=O)N2CCCC(C(=O)c3ccc(Cl)cc3C)C2)n1 (centres undefined) | 6.2
CCOC(=O)N1CCc2c(sc3ncn(Cc4ccc(F)cc4)c(=O)c23)C1 | 12.1
COc1ccc(NC(=S)Nc2ccccc2SC)c(OC)c1 | 7.0
CC(C)=CCN1CCN(Cc2ccc(Sc3nncn3C)o2)CC1CCO (centres undefined) | 4.9
Cc1cc(NC(=O)CC2(CC(=O)O)CCCC2)n(C)n1 | 26.1
O=C(O)CCCC(=O)Nc1ccccc1Oc1ccccc1 | 9.6
C=C(C)CN(CC)C(=O)CC1C(=O)NCCN1Cc1c(F)cccc1Cl (centres undefined) | 21.9

Filtered by structure: the entries above containing four or more nitrogen atoms (3)
Compound | Calb biofilm kill
Clc1ccc(C2[C@H]3CN(Cc4cccnc4)[C@H](c4ccccc4)C34CC2(c2cccnc2)C4)cn1 (some centres undefined) | 17.8
Cc1nc(C)n(CC(=O)N2CCCC(C(=O)c3ccc(Cl)cc3C)C2)n1 (centres undefined) | 6.2
CC(C)=CCN1CCN(Cc2ccc(Sc3nncn3C)o2)CC1CCO (centres undefined) | 4.9

(more compounds)
Compound | Calb biofilm kill
Cc1cccc(C(=O)NCC(=O)N2CC(=O)Nc3ccccc32)c1 | 13.1
O=C(CSc1nnc(-c2ccc3c(c2)OCO3)n1-c1ccccc1)c1ccccc1 | 15.1
CCOC(=O)CNC(=S)N(Cc1ccccc1F)C1CCCCC1 | 22.2
C=CCN=C1S/C(=C/c2cccc([N+](=O)[O-])c2)C(=O)N1CC=C | 13.7
O=C(NC(=S)NCc1ccc(F)cc1)c1ccccc1 | 20.8
CCc1cc2c(=O)n(-c3ccc(C)cc3)cnc2s1 | 13.7
O=C(CCc1ccccc1)Nc1ccccc1C(F)(F)F | 12.8
C/C(=N\NC(=O)c1nn(C)cc1Br)c1cccc(NC(=O)c2ccncc2)c1 | 6.1
Cc1cccc(Nc2nc(N)nc(CN3CCC(C)CC3)n2)c1C | 10.5
O=C1CC(N(CCc2ccccc2)C(=S)Nc2ccccc2)C(=O)N1c1ccccc1 (centres undefined) | 12.5

Additional results:
Compound | Calb biofilm kill
CC(=O)C1=C(C)NC(SCC(N)=O)=C(C#N)C1CC(C)C (centres undefined) | 10.5
Cc1cc(=O)c2ccccc2n1Cc1ccccc1 | 4.0
COC(=O)C1(NC(=O)NC23CC4CC(CC(C4)C2)C3)CCCCC1 | -15.4
COc1ccc(C(=O)OCC(N)=O)cc1[N+](=O)[O-] | 12.9
O=[N+]([O-])c1ccc(-n2nnnc2-c2ccccc2)cc1 | 16.3
c1ccc(C(c2nnnn2Cc2ccco2)N2CCN(c3nc4ccccc4s3)CC2)cc1 (centres undefined) | -2.3
COc1ccccc1N(CC(=O)N/N=C/c1ccccc1C(=O)O)S(C)(=O)=O | 21.4
O=C(Nc1ncn[nH]1)c1ccc(S(=O)(=O)N2CCOCC2)cc1 | -31.5
COc1ccc(-c2nc3n(c(=O)c2C#N)CCS3)cc1OC | 26.0
CSc1ccccc1C(=O)NCc1ccccc1 | 0.4

Further entries.
Compound | Calb biofilm kill
COc1ccc(OC)c(NC(=O)c2cccc(S(=O)(=O)N(Cc3ccccc3)c3ccccc3OC)c2)c1 | 19.6
CC(=O)Nc1ccc(/C=N/Nc2nc3ccccc3s2)cc1 | 6.8
Cc1cc2occ(CC(=O)NC3CCCc4ccccc43)c2cc1C (centres undefined) | 19.3
CC1=NN(C(C#N)c2cccc([N+](=O)[O-])c2)C(C)(C)C1 (centres undefined) | 19.7
CC(=O)c1cc(-c2ccccc2)n(CC(=O)N2CCC(C)CC2)c1C | 10.5
N#C/C(=N\Nc1cccc(C(F)(F)F)c1)C(=O)c1csc(-c2cccnc2)n1 | 15.6
O=C(c1cc2sccc2n1Cc1ccc(F)cc1)N1CCCc2ccccc21 | 14.9
O=C(CNc1cccc(Cl)c1)NNC(=S)NCc1ccccc1 | 18.8
COc1ccccc1N(Cc1cc(=O)[nH]c2ccccc12)C(=O)c1ccccc1 | 21.8
Cn1c(Cn2cnc([N+](=O)[O-])n2)nnc1SCC(=O)Nc1ccccc1 | 27.2

Later entries.
Compound | Calb biofilm kill
COc1cc(C(=O)Nc2ccccc2C2COC(=O)C2=N)cc(OC)c1OC (centres undefined) | 14.1
Cc1cccc(NC(=O)CSc2nnc(-c3ccco3)c(-c3ccco3)n2)c1 | 13.0
NC(=O)c1ccc(NCC2COc3ccccc3O2)c([N+](=O)[O-])c1 (centres undefined) | 18.4
Cc1ccc(-n2c(C)cc(C(=O)COc3cccnc3[N+](=O)[O-])c2C)cc1 | 4.6
O=C(Nc1cccnc1Oc1ccc(Cl)cc1)c1cccc2ccccc12 | 15.4
C/C(=C\C(=O)c1ccc(Cl)s1)N(C)C | -10.9
COc1cc2c(cc1OC)C(C)N(C(=O)c1c(C)noc1C)CC2 (centres undefined) | 11.4
Cc1cc(=O)n2[nH]c(-c3ccsc3-n3c(C)ccc3C)cc2n1 | 4.0
CC(=O)c1c(C)[nH]c(C(=O)COC(=O)CCCOc2ccccc2)c1C | 16.4
O=C(Nc1ccc(N2CCOCC2)cc1)c1ccc(S(=O)(=O)NCc2ccco2)cc1 | 10.3

Later entries.
Compound | Calb biofilm kill
O=C(CSc1nnc(COc2cccc3cccnc23)o1)N1CCCC1 | 4.4
NNC(=O)c1ccc(Cn2cc(Br)cn2)o1 | 12.1
CC(Sc1nc2ccccc2[nH]1)C(=O)Nc1ccccc1F (centres undefined) | 0.2
O=C(CN1CCCCC1)Nc1ccccc1Cl | 24.4
CCOC(=O)/C(=N\Nc1cc(Cl)ccc1Cl)N1CCN(C)CC1 | 6.5
CCn1cnc2sc(C(=O)Nc3ccccc3OC)c(C)c2c1=O | 19.0
O=C1CCC(C(=O)NCCN2C(=O)S/C(=C\c3cccnc3)C2=O)=NN1 | 11.5
CC(c1ccccc1)N(CCC(c1ccccc1)C1CCOC(C)(C)C1)C(=O)c1ccco1 (centres undefined) | 9.2
CC1CN(/C=C/C(=O)C(F)(F)F)CC(C)O1 (centres undefined) | 14.7
C=CCNC(=S)NC(=O)c1oc2ccccc2c1C | 6.2

(listing goes on)
Compound | Calb biofilm kill
CCOc1ccccc1-n1nnnc1SCC(=O)OC | -2.0
NC(=S)N/N=C1\CC(n2nnnc2-c2ccccc2)C2COC1O2 (centres undefined) | 13.6
Cc1cc(N2CC(C(=O)NCc3cccnc3)CC2=O)ccc1C(C)C (centres undefined) | 5.0
Fc1ccccc1N1CCN(c2nnnn2-c2ccccc2)CC1 | 10.4
CCCn1nc(C(=O)NCc2ccc3c(c2)OCO3)c2ccccc2c1=O | 16.0
CC(=O)Nc1ccc(NC(=O)CSc2ccc(-c3ccc4c(c3)OCO4)nn2)cc1 | 12.1
CN(c1ccccc1)S(=O)(=O)c1ccc(C(=O)NCc2ccccn2)cc1 | 15.9
CSc1ccc(Cl)c(C(=O)Nc2ccc(N3CCOCC3)cc2)c1 | 7.4
CCc1ccc(OCCCC(=O)Nc2nccs2)cc1 | 8.6
O=C(Nc1ccccc1)Nc1ccc(C(F)(F)F)cn1 | 15.2

More compounds
Compound | Calb biofilm kill
CC(C)Cn1c(=S)[nH]c2cc(C(=O)O)ccc2c1=O | 5.2
COc1ccc(CNC(=O)CSc2n[nH]c(C)c2[N+](=O)[O-])cc1 | 12.1
CC(=O)Nc1nnc(SCC(=O)NCC2CCCO2)s1 (centres undefined) | 3.2
CC1CC(=O)N(c2ccc(Br)cc2)C(=O)C1 | 15.1
CC(C)c1nnc(NC(=O)CSc2nnc(-c3ccco3)o2)s1 | 11.5
COc1cc2c(cc1OC)C(C)N(C(=O)c1cc3c(s1)-c1ccccc1OC3)CC2 (centres undefined) | 7.1
Cc1cc(C)cc(NC(=O)C(=O)NCc2ccccn2)c1 | 9.5
COc1cccc2cc(C(=O)NCc3ccccn3)c(=O)oc12 | 7.8
CC(C)C(=O)Nc1ccc(-c2nc3ccccc3c(=O)o2)cc1 | -2.0
CC(C)(CSc1ccccn1)NS(=O)(=O)c1ccc(Cl)cc1 | 8.6

The list goes on:
Compound | Calb biofilm kill
O=C(NN=C1CCCC1)c1sc2ccccc2c1Cl | 9.2
COCc1cc(C)[nH]c(=O)c1C(=O)NC12CC3CC(CC(C3)C1)C2 | 5.4
C[C@@H]1CN(C(=O)c2nc3ccc(Cl)cn3c2CN2CCc3sccc3C2)C[C@H](C)O1 | 5.6
CC(=O)c1ccc(N2CCN(C(=S)Nc3ccccc3F)CC2)cc1 | -2.2
Cc1cc(C)cc(NC(=O)C(OC(=O)c2cccs2)c2ccccc2)c1 (centres undefined) | 12.9
Cc1nc(-c2ccc(C(=O)Nc3ccccc3F)cc2)cs1 | -5.4
O=S(=O)(c1ccc(Cl)cc1)c1cnc2ccccc2n1 | 15.9
CC(=O)c1ccc(OCCCC(=O)Nc2cc(S(=O)(=O)N(C)C)ccc2C)cc1 | 15.1
CN(Cc1ccccc1)Cc1nc2scc(-c3ccccc3)c2c(=O)[nH]1 | -1.6
O=C(Nc1ccccc1)Nc1ccc(-n2ccc(C(F)(F)F)n2)cc1 | 23.0

The list continues:
Compound | Calb biofilm kill
Cc1c(Cl)c([N+](=O)[O-])nn1CC(=O)NCc1cccs1 | 19.4
Cc1cccc([C@@H]2C[C@H]3CN(Cc4cccc(Cl)c4)C(=O)[C@]34CCCN24)n1 | 11.8
Cc1cc(C(F)F)nn1CC(=O)NCc1ccco1 | 4.8
COc1cc(C(=O)C(=O)c2cc(OC)c(O)c(OC)c2)cc(OC)c1O | 20.9
O=c1c2ccccc2nnn1CSc1ccc2ccccc2n1 | 6.2
O=C(CC1NC(=S)NC1=O)c1ccc(Cl)cc1 (centres undefined) | 10.8
C=CCC(COCc1ccccc1)NS(=O)(=O)c1ccccc1Br (centres undefined) | 11.3
Cc1ccc(-n2c(=O)c3cc4c(=O)n(-c5ccc(C)c(C)c5)c(=O)c4c(C(=O)c4ccc(C(=O)O)cc4)c3c2=O)cc1C | 5.4
Cn1c(C(C)(O)C(O)c2ccccc2)nc2ccccc21 (centres undefined) | 10.6
COc1c(/C=N/NS(=O)(=O)c2ccc(C)cc2)c(CCN(C)C(C)=O)cc2c1OCO2 | -3.4

(continued)
Compound | Calb biofilm kill
Cc1cccn2c(=O)c(/C=N/O)c(Nc3ccccc3F)nc12 | 17.5
CSc1nc2cc(S(=O)(=O)N3CCCCC3)ccc2s1 | 16.4
CC(C)(C)c1ccc(O)c(N=Cc2cc(Br)ccc2O)c1 | 23.8
COc1nn(-c2nc(-c3ccccc3)cc(C(F)(F)F)n2)cc1[N+](=O)[O-] | 6.9
COC(=O)C1=C(C)NC(=S)NC1c1ccc(-c2cc(Cl)ccc2Cl)o1 (centres undefined) | 18.7
Cn1c(NC(=O)/C=C/c2ccc(Cl)c(Cl)c2)cc(=O)n(C)c1=O | 12.9
O=C(CN1CCN(c2ccc(O)cc2)CC1)Nc1ccc(SC(F)F)cc1 | 13.5
C=CCOC(=O)C1=C(C)NC(=S)C(C#N)(CC=C)C1c1ccccc1Cl (centres undefined) | 17.6
CCc1n[nH]c(=S)n1/N=C/c1ccc(N(C)c2ccccc2)cc1 | 1.4
CC1CCc2sc(C(=O)OCC(=O)NC(N)=O)cc2C1 (centres undefined) | 15.8

Next part:
Compound | Calb biofilm kill
Cc1cc(C(=O)Nc2cccc(S(=O)(=O)N3CCCCC3)c2)c2ccccc2n1 | 19.8
c1cncc(-c2nc(NCCCn3ccnc3)c3ccccc3n2)c1 | 5.6
O=C(NCc1ccccn1)c1ccc([N+](=O)[O-])cc1 | 7.3
Cc1cc(OCC(=O)Nc2ccc(S(=O)(=O)NC3=NCCCCC3)cc2)c(C(C)C)cc1Cl | 16.4
Cc1[nH]nc(N)c1-c1ccccc1 | 12.3
CC(C)(C)C(=O)Nc1cccc(OC(F)(F)C(F)Cl)c1 (centres undefined) | -22.1
CCCCC(CC)CNC(=O)c1ncn[nH]1 (centres undefined) | 15.4
COc1ccc(C2CC(O)(c3ccccc3)Oc3cc(OC)cc(OC)c32)cc1 (centres undefined) | 11.5
C/C(=N\NC(=O)c1cc(C)nc2ccccc12)c1ccco1 | 10.6
Cc1ccc(Cl)c(OC(=O)c2ccc(N3CCOCC3)c([N+](=O)[O-])c2)c1 | 13.4

Next part
Compound | Calb biofilm kill
CC1=C/C(=C/N(C)C)C(=O)O1 | -1.2
COC(=O)CCCC1=CC2=CC(=O)C(C)(OC(=O)c3cccs3)C(=O)C2=CN1CCCOC(C)C (centres undefined) | 17.8
CCc1ccc(Nc2nnc(SC3CCOC3=O)s2)cc1 (centres undefined) | 5.6
Cc1cccc(NC(=O)CSc2nnc(C)c(=O)n2N)c1C | 6.5
O=C(N/N=C/c1ccccn1)c1c[nH]c2ccccc12 | 8.2
CCCC(=O)NCCc1cc2cc(C)c(C)cc2[nH]c1=O | 1.1
CCN(C(=O)COC(=O)CNS(=O)(=O)c1ccccc1)c1ccccc1 | 4.2
COc1ccc(OC)c(NC(=O)N2CCCC(CNS(=O)(=O)c3cccs3)C2)c1 (centres undefined) | 2.1
NC(=O)C1CCCN(C(=S)Nc2cccc3ccccc23)C1 (centres undefined) | 23.0
COc1cc(CCCN2C(=S)NC[C@@H]2c2ccccc2)cc(OC)c1OC | 18.5

(cont.)
Compound | Calb biofilm kill
COc1ccc(-c2c[n+]3c(n2-c2c(C)n(C)n(-c4ccccc4)c2=O)CCCCC3)cc1 | 11.0
Cc1ccc(-c2nn(-c3ccccc3)cc2C(=O)N2CCOCC2)cc1C | 13.5
CSc1cccc(NC(=S)Nc2ccc(F)cc2)c1 | 24.5
COc1cccc(-n2cnc3sc(C)cc3c2=O)c1 | 8.2

Only part of the results is shown. The share of hits here may be higher or lower than overall.
